# VDR inhibitor – inhibitors of human vitamin D receptor; AID 504847; VDR-SRC2-3 peptide fluorescence polarization, 2 h; Potency, µM, inactives show max response, negative = inhibition, hits mostly inhibitors; P11473; hit rate 0.93% among 400,000; active = well fitted inhibition curve with a large enough effect; inconclusive = small, poorly fitted or top-dose-only effect, or another doubt; inactive = no such curve, though single readings can be large or run the other way; also: series mostly up to about 120 µM
# Target sequence (P11473 whole entry, looked up): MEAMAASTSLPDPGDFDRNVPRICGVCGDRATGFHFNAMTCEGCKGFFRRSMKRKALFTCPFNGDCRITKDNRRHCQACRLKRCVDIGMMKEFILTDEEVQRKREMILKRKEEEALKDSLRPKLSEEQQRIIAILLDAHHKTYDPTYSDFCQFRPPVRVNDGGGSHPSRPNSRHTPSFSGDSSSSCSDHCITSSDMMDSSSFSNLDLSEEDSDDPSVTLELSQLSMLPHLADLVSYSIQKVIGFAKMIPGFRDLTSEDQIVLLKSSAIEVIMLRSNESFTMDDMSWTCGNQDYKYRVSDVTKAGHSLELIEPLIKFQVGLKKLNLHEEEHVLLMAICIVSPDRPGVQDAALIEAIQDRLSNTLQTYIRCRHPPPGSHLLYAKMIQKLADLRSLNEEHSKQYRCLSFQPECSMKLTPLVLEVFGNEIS
#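 Fluorescence polarization assay of small-molecule disruption of VDR binding to coregulator peptide SRC2-3. Compounds and controls pin-transferred, then read after 2 h incubation at ambient room temperature.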
# * = called active by the depositor; u = inconclusive. % is scaled to controls: 0 for no effect and ±100 for the full control effect; potency is read from the fitted curve at half-maximal effect. Not all compounds are listed (hit frequency here may not be typical).
# Sample of the layout:
SMILES,VDR inhibitor
Cc1cnc(=O)[nH]c1SCC(=O)Nc1nccs1,0.2%
c1csc(CNc2ncnc3nc[nH]c23)c1,-17.4%
O=[N+]([O-])c1nn(-c2ccccc2)n(O)c1=NCc1ccc2c(c1)OCO2,-6.3%
O=C(c1ccc2nccnc2c1)N1CCN(Cc2ccc3c(c2)OCO3)CC1,-10.2%
COc1cccc(NC(=O)COc2ccc3c(c2)CCC3)c1,-5.5%
CC(=O)Nc1ccc(NC(=O)C(C)OC(=O)CCCOc2ccc(Cl)c(C)c2)cc1 (stereo unspecified),-9.0%
COc1ccc(S(=O)(=O)Nc2cccc(-n3cnnn3)c2)cc1,13.6%
COc1ccccc1N(CC(=O)NC(C)(C)C)C(=O)c1ccc(Cl)nc1,3.2%
COCCCn1c(C(=O)NCCC2=CCCCC2)cc2c(=O)n3ccccc3nc21,-13.9%
Cc1cc(NC(=O)c2cnn3c(C(F)(F)F)cc(-c4ccccc4)nc23)no1,-0.5%
O=C(O)C1CCCCC1C(=O)NCCc1ccc(F)cc1 (stereo unspecified),-17.1%
CNC(=O)CSc1nnc(-c2cccc(S(=O)(=O)N3CCOCC3)c2)n1-c1ccc(F)cc1,4.2%
O=S1(=O)C[C@@H](O)[C@@H](Nc2ccccc2)C1,13.2%
Cc1oc(C(C)(C)C)cc1C(=O)N1CCCC1C(=O)O (stereo unspecified),-11.1%
CC1(C)Cc2ccccc2C(=NC(Cc2ccccc2)C(=O)O)N1 (stereo unspecified),-12.2%
CC(OC(=O)c1ccccc1NS(=O)(=O)c1cccc(N)c1)C(=O)N(C)Cc1ccccc1 (stereo unspecified),-5.8%
CC(C)N(C(=O)Cn1cc(SCC(=O)NCc2ccco2)c2ccccc21)C(C)C,-8.2%
CC[C@@]1(C(=O)OC)N[C@H](CN(C)C(=O)Nc2ccc(F)cc2)[C@@H]2C(=O)N(C)C(=O)[C@@H]21,-10.5%

# All compounds of this part, from the first entry:
SMILES,VDR inhibitor
Cc1cnc(=O)[nH]c1SCC(=O)Nc1nccs1,0.2%
c1csc(CNc2ncnc3nc[nH]c23)c1,-17.4%
O=[N+]([O-])c1nn(-c2ccccc2)n(O)c1=NCc1ccc2c(c1)OCO2,-6.3%
O=C(c1ccc2nccnc2c1)N1CCN(Cc2ccc3c(c2)OCO3)CC1,-10.2%
COc1cccc(NC(=O)COc2ccc3c(c2)CCC3)c1,-5.5%
CC(=O)Nc1ccc(NC(=O)C(C)OC(=O)CCCOc2ccc(Cl)c(C)c2)cc1 (stereo unspecified),-9.0%
COc1ccc(S(=O)(=O)Nc2cccc(-n3cnnn3)c2)cc1,13.6%
COc1ccccc1N(CC(=O)NC(C)(C)C)C(=O)c1ccc(Cl)nc1,3.2%
COCCCn1c(C(=O)NCCC2=CCCCC2)cc2c(=O)n3ccccc3nc21,-13.9%
Cc1cc(NC(=O)c2cnn3c(C(F)(F)F)cc(-c4ccccc4)nc23)no1,-0.5%
O=C(O)C1CCCCC1C(=O)NCCc1ccc(F)cc1 (stereo unspecified),-17.1%
CNC(=O)CSc1nnc(-c2cccc(S(=O)(=O)N3CCOCC3)c2)n1-c1ccc(F)cc1,4.2%
O=S1(=O)C[C@@H](O)[C@@H](Nc2ccccc2)C1,13.2%
Cc1oc(C(C)(C)C)cc1C(=O)N1CCCC1C(=O)O (stereo unspecified),-11.1%
CC1(C)Cc2ccccc2C(=NC(Cc2ccccc2)C(=O)O)N1 (stereo unspecified),-12.2%
CC(OC(=O)c1ccccc1NS(=O)(=O)c1cccc(N)c1)C(=O)N(C)Cc1ccccc1 (stereo unspecified),-5.8%
CC(C)N(C(=O)Cn1cc(SCC(=O)NCc2ccco2)c2ccccc21)C(C)C,-8.2%
CC[C@@]1(C(=O)OC)N[C@H](CN(C)C(=O)Nc2ccc(F)cc2)[C@@H]2C(=O)N(C)C(=O)[C@@H]21,-10.5%
CC(C)CC(=O)Nc1nc(=S)ss1,u
CCC(=O)c1ccc(OCC(=O)OCC(=O)N2c3ccccc3CC2C)cc1 (stereo unspecified),-0.6%
N#Cc1nc(/C=C/c2ccccc2)oc1NCCCN1CCOCC1,-13.2%
CC(=O)N1CN(C2CCS(=O)(=O)C2)Cc2c1sc1c2CCCC1 (stereo unspecified),-5.8%
CCN(CCO)c1ccc(N=Nc2cc(C)[nH]n2)cc1,-3.7%
CCN(CC)CCCN(C(=O)c1ccccc1C)c1nc(-c2ccc(OC)cc2)cs1,-6.8%
Cc1ccc(SCC(=O)Nc2ccc(N3CCN(c4ccccc4)CC3)c(F)c2)cc1,1.6%
COc1ccc(NC(=O)c2ncoc2-c2ccco2)cc1Cl,5.0%
Cc1ccc(NS(=O)(=O)c2cc(C(=O)NCCSc3ccc(C)cc3)ccc2C)cc1,10.5%
O=C(Nc1nc(=O)c2ccccc2s1)c1ccccc1,u
NC(=O)C1(N2CCCC2)CCN(Cc2ccccc2)CC1,-0.5%
COc1cccc(NC(=O)C(Cc2ccccc2)NS(=O)(=O)c2ccc3c(c2)c(=O)n(C)c(=O)n3C)c1 (stereo unspecified),-4.2%
Cc1cccc2cc(CN(CCN3CCOCC3)C(=O)NCc3ccccc3)c(=O)[nH]c12,9.7%
Cc1ccccc1NC(=O)Nc1cc(-c2ccccc2)nn1C,-6.1%
Cc1cccc(C)c1Nc1nnc(SCC(=O)NCc2ccco2)s1,5.1%
Cc1ccc(-n2c(CNc3ccc(F)cc3)nnc2SCC(=O)O)cc1,-7.6%
CN(CC(=O)NC1(C)CCS(=O)(=O)C1)S(=O)(=O)c1ccc(Cl)cc1 (stereo unspecified),-17.7%
CC(C)=C(NC(=O)c1ccccc1)C(=O)Nc1cccc(C(=O)O)c1,-11.7%
O=S(=O)(c1ccccc1)N1CCC2(CCCN(C(c3ccccc3)c3ccccc3)C2)CC1,-1.7%
COc1ccc(C(c2c(O)nc[nH]c2=O)c2c(O)nc[nH]c2=O)cc1,-5.6%
CSc1ncccc1C(=O)OCC(=O)c1cc(C)n(CC2CCCO2)c1C (stereo unspecified),0.7%
O=C(N/N=C\c1cccc(F)c1)c1ccc(-c2ccccc2)cc1,4.0%
CCCC(C(=O)O)N1C(=O)/C(=C2\C(=O)N(C)c3ccccc32)SC1=S (stereo unspecified),-28.9%
Cc1ccc(-n2nc(C)c3nc(CCC(=O)Nc4ccc(F)cc4)c(=O)n(C)c32)cc1,16.0%
Cn1c2c(c(=O)n(C)c1=O)C(c1cc3c(cc1Br)OCO3)CC(=O)N2 (stereo unspecified),-7.1%
CCOc1ccc(CC(=O)N2CCc3cc(OC)c(OC)cc3C2COc2ccc3c(C)cc(=O)oc3c2)cc1 (stereo unspecified),7.0%
O=C(CCn1nnnc1CN1CCOCC1)N1CCC(c2ccccc2Cl)C1 (stereo unspecified),-10.3%
COc1cccc(CCC(=O)Nc2cccc(S(=O)(=O)N3CCCC3)c2)c1OC,-4.4%
COc1ccc(S(=O)(=O)CCC(=O)NCCc2ccc(S(N)(=O)=O)cc2)cc1,-10.2%
COc1cccc(CN2C(=O)C(C)N(C(=O)c3c(F)cccc3F)c3ccccc32)c1 (stereo unspecified),-3.2%
COc1ccc(Cl)cc1Nc1nc(-c2cccnc2)cs1,0.1%
COc1ccc(NC(=O)c2ccccc2F)cc1Cl,2.0%
CCOC(=O)C1CCN(CC(O)COc2ccc(S(=O)(=O)N3CCCC3)cc2[N+](=O)[O-])CC1 (stereo unspecified),-6.2%
O=Cc1ccc(Cl)c(Cl)c1,-14.4%
O=C(CSc1nnc(-c2c[nH]c3ccccc23)o1)NCC1CCCO1 (stereo unspecified),2.3%
S=C(Nc1ccc2nccnc2c1)N1CCCC1,-3.4%
O=C(NCc1ccccn1)Nc1ccc(F)cc1F,-9.4%
CCOC(=O)N1CCN(CC(O)COCc2ccc(Cl)cc2)CC1 (stereo unspecified),-0.4%
C/C(=C/c1ccccc1)C(=O)N1CCN(c2ccccc2F)CC1,-3.4%
CCc1cccc(NC(=O)Cn2c3[n+](c4ccc(C(F)(F)F)cc42)CCCCC3)c1,-26.4%
COc1ccc(CC(NC(C)=O)C(=O)NC2CCN(C(=O)c3ccncc3)CC2)cc1OC (stereo unspecified),19.1%
Cc1[nH]c2ccc(C(=O)NCCN3CCOCC3)cc2c1C,2.4%

# The list continues.
SMILES,VDR inhibitor
COc1ccc(C(=O)c2c(-c3ccc(OC)cc3)oc3ccccc23)cc1,4.3%
Cc1cccc(C)c1NC(=O)CSc1nc(-c2ccccc2)nc2c1Cc1c(CO)cnc(C)c1O2,12.9%
S=C(NCCN1CCCCC1)Nc1ccccc1,-15.0%
Cc1occc1-c1nnc(SCC(=O)NC(C)(C)C)n1C(C)c1ccccc1 (stereo unspecified),0.2%
CCc1ccc(CNC(=O)c2cc3c(=O)oc4ccc(C)cc4c3s2)cc1,-1.2%
COc1ccc(CNc2ncncc2-c2c(C)noc2C)c(OC)c1,-5.2%
CCN1C(=O)N[C@@H](c2cccc(C(F)(F)F)c2)C(C(C)=O)=C1C,1.1%
CCC(=O)NC[C@H](Cc1ccc(OCCc2nc(-c3ccccc3)oc2C)cc1)N/C(C)=C\C(=O)c1ccc(C(F)(F)F)cc1,0.1%
Cc1cccc(NC(=O)c2cc3c(=O)n(Cc4ccco4)ccc3nc2C)c1,-6.6%
Cc1cc(C)n(CCNCc2c(C(=O)N3C[C@@H](C)O[C@@H](C)C3)nc3ccc(Cl)cn23)n1,-11.1%
N#Cc1cccc(S(=O)(=O)NCC(=O)OCC(=O)c2ccc[nH]2)c1,-7.8%
CCOC(=O)c1cccc(NC(=O)CCn2c(-c3ccc(F)cc3)cc(C(=O)OCC)c2C)c1,14.3%
Cc1ccc(C(C)(C)C)cc1S(=O)(=O)N1CCC(C(=O)N2CCN(c3ccc(O)cc3)CC2)CC1,5.0%
Cc1cc(O)c(C(C)C)cc1NC(=O)Cn1nc(C)c2ccccc2c1=O,14.9%
CN(C)c1ccc(C(=S)N2CCCCCC2)cc1,1.9%
CC(C)=C1SC(N2CCN(c3ccc(Cl)cc3)CC2)=NC1=O,3.3%
COc1ccc(CN2C(=O)C(C)S/C2=N/N=C/c2ccco2)cc1 (stereo unspecified),-5.6%
Cc1nc2c(c(C)nn2-c2ccccc2)c(C)c1CCC(=O)NCCc1ccc(Cl)cc1,-3.4%
NC(=O)C1=CC2C3C=CC2(O)C(=O)OC3O1 (stereo unspecified),-5.0%
O=C(CSc1nc2ccccc2c2nc(-c3ccccc3)nn12)Nc1ccc(Br)cc1,15.0%
Cc1cc(C)c(S(=O)(=O)N2CCCC2=O)c(C)c1,6.4%
O=C(Cn1c(=O)n(Cc2ccco2)c(=O)c2ccc(C(=O)NC3CCCC3)cc21)Nc1ccc(F)cc1,11.2%
COc1cc(/C=C2\CCc3c2nc2ccccc2c3C(=O)O)cc(OC)c1OC,-26.5%
CSc1nsc(SC)c1C(=O)NC(=O)Nc1cccnc1,-20.6%
COc1ccc(-n2ncc3c2CC(C)(C)CC3NC(=O)CCC2=NNC(=O)CC2)cc1 (stereo unspecified),-4.9%
Cc1ccc(-n2c(=O)c3oc4ccccc4c3n(Cc3ccccc3F)c2=O)cc1C,12.2%
O=[N+]([O-])c1ccc(NCCCNS(=O)(=O)c2ccccc2)c(Cl)c1,-7.5%
COc1ccc(-c2c(C)nn3c(C(F)(F)F)cc(-c4ccc(C)cc4)nc23)cc1,-8.3%
O=S(=O)(c1cccc(F)c1)N1CCN(C(=S)NCc2ccccc2)CC1,1.8%
C/C(O)=c1/c(=O)nc2cccc3c2=c1c1ccccc1c3=O,-14.4%
Cn1c(SCC(=O)NCC2CCCO2)nnc1-c1c[nH]c2ccccc12 (stereo unspecified),u
CC1(C)CC(NC(=O)COc2ccc3c4c(c(=O)oc3c2)CCCC4)CC(C)(C)N1,-4.1%
CS(=O)(=O)c1ccc(-c2nnc(NC(=O)C3=COCCO3)o2)cc1,-14.2%
Cc1ccc(OCC(=O)N/N=C/c2cn(C)c3ccccc23)cc1,-17.1%
CC(C)Cn1c(SCC(=O)N2CCCc3ccccc32)nc2ccccc2c1=O,-7.5%
C[C@@H](CSc1ccc(Br)cc1)CN1CC[C@H](NC(=O)OCc2ccccc2)CCC1=O,-16.9%
COc1ccc(CN2CCN(C(=O)c3cccc4ccccc34)CC2)c(OC)c1OC,-19.2%
CCOC(=O)C/C(C)=N\Nc1ccc([N+](=O)[O-])cc1[N+](=O)[O-],-13.4%
CC(C(=O)O)N1CCCCC1 (stereo unspecified),-4.3%
O=C(NCCN1CCOCC1)c1ccc2c(c1)N(Cc1cccc(F)c1)C(=O)c1ccccc1S2,5.8%
COc1ccccc1C1CCN(Cc2ccc(Cl)c(Cl)c2)CC1,-23.5%
OCCCNc1ncnc2scc(-c3ccc(Cl)cc3)c12,-4.2%
C[C@H](NC(=O)c1nc[nH]c1C(=O)N1CCN(C(=O)OC(C)(C)C)CC1)C(=O)OCc1ccccc1,-20.1%
O=C(COC(=O)CNC(=O)c1ccc(Br)cc1)Nc1nnc(-c2ccccc2)o1,-17.1%
CCc1cccc(NC(=O)Cn2c(=O)n(CC3CCC(C(=O)NC)CC3)c(=O)c3sccc32)c1 (stereo unspecified),-3.7%
Cc1ccc(S(=O)(=O)Cc2ccc(C(=O)NCCc3ccc(Cl)cc3)o2)cc1,-10.3%
Cc1ccc(OCCC(=O)OCC(=O)c2c(N)n(CC(C)C)c(=O)n(C)c2=O)cc1,5.6%
O=C(Nc1ccccc1)N1CCC2(CC1)CCN(C(=O)c1ccco1)CC2,-13.1%
Cc1ccc(NC(=O)COC(=O)c2c(-c3ccccc3)noc2C)cc1,13.5%
CC1CCCCC1NC(=O)NC(=O)COC(=O)c1ccc(OC(F)F)cc1 (stereo unspecified),-8.2%
COC(=O)c1c(C)[nH]c(C=O)c1-c1ccccc1,-1.7%
O=C1CN(c2nc(-c3cccs3)nc3sc4c(c23)CCCC4)CCN1,16.1%
O=C(CCN1C(=O)c2ccccc2C1=O)N1CCN(Cc2ccccc2)CC1,-8.9%
COc1ccc2[nH]c(C)c(CCN3C(=O)C4CC=CCC4C3=O)c2c1 (stereo unspecified),u
O=C(Cc1ccccc1)Nc1cccc(NC(=O)c2cccs2)c1,11.9%

# Reprinted at random: 2 records from the list.
SMILES,VDR inhibitor
O=C(Cc1ccccc1)Nc1cccc(NC(=O)c2cccs2)c1,11.9%
COc1ccc2[nH]c(C)c(CCN3C(=O)C4CC=CCC4C3=O)c2c1 (stereo unspecified),u
